High-throughput results deposited in PubChem BioAssay by several laboratories.
GALR2 agonist: GALR2 (human) receptor agonism; O43603; AID 803; activation, %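 (tested at 5 µM)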; GALR2-expressing cells, agonist activation read-out; 140,000 compounds, 0.48% hits;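 active means above mean plus 3 SD of all compounds, about 5% in these data, not always enough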;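 further: 0% = vehicle buffer wells and 100% = reference agonist at full effect; tested in CHO reporter cells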
PKD1 inh: inhibitors of human PKD1 kinase | 200,000 compounds, 0.056% hits | PKD1 kinase fluorescence polarization assay | Q15139 | inhibition, %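 (about 10 µM by stock and volumes)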;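 active means inhibition of 50% or more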;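 further: controls were vehicle for no effect and a reference inhibitor for full effect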
Target sequence (Q15139 whole entry, looked up): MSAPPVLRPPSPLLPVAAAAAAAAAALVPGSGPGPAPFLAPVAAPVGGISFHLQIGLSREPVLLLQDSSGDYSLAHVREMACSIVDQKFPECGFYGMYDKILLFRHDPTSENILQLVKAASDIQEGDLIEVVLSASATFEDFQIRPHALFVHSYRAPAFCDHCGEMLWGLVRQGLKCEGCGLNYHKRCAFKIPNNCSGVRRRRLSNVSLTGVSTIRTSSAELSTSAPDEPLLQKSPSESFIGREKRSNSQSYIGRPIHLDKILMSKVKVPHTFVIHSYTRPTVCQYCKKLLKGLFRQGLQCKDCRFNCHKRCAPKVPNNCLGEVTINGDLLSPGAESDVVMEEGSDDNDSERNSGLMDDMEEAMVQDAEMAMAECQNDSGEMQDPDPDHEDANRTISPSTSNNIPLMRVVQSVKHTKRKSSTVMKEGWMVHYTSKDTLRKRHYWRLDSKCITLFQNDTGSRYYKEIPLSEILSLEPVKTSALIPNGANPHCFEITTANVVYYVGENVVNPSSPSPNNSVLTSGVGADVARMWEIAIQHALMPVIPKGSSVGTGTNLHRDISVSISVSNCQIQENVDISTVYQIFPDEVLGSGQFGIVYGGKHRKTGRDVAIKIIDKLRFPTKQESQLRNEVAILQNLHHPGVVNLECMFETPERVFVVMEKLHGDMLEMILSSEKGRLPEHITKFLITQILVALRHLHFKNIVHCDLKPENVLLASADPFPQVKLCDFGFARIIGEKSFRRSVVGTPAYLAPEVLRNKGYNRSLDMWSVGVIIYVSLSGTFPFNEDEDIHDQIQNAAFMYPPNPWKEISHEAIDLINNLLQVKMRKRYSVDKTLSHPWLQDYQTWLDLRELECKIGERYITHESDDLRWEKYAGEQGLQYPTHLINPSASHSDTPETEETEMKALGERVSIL
Insulin prom inh: TRM-6 insulin promoter activity inhibition; TRM-6 cells (human fetal islet line), insulin promoter-eGFP reporter, imaging; reporter expression induced with tamoxifen; inhibition, % at 2 µM; 130,000 compounds, 0.9% hits; AID 1273;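 active means inhibition above the mean plus 3 SD, with well images judged a real hit on visual review, cut at about 60% in these data, passing the limit was not always enough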
HSV replic up: increases HSV replication in cells | HSV replication augmentation in cells, fold increase | maximum fold increase | 220,000 compounds, 0.005% hits;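 active means peak rise of 1.5-fold or more in the series; tested in PC3 cells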;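 further: first round at 10 µM; read as green reporter fluorescence; hits show the peak of a series up to 25 µM; 1 = signal of infected wells without compound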
RGS16-Gao: regulators of human RGS16-Galphao interaction; O15492+P09471; bead-based flow cytometry RGS16-Galphao binding, fluorescence; actives lie on both sides; binding response (% of control), % at 10 µM; 220,000 compounds, 0.38% hits;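 active means below 25% or above 175%, edge rows of some plates excepted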;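 further: Galphao activated by GDP with aluminum fluoride before binding; 100% = wells without compound and 0% = beads without RGS; some results beyond the cut were filed as inactive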
Insulin prom inh cell count: further read-out of Insulin prom inh, marked with its call; normalized cell count, %; measured here: cell count, toxicity; reference of the scale not given here;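 cells exposed to compound for 48 h; stained nuclei by imaging scaled within each plate; lower means fewer cells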
HSV replic up primary fold: recorded beside HSV replic up, whose call it bears; fold increase; compound at 10 µM; measured here: primary screen fold increase 10 uM; tested in PC3 cells;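 GFP signal in the first replicate; 1 = infected wells without compound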
Starred values were filed as active, the others as inactive; i = inactive; / = no result given; ! = not confirmed by another sample.

SMILES,GALR2 agonist,PKD1 inh,Insulin prom inh,Insulin prom inh cell count,HSV replic up,HSV replic up primary fold,RGS16-Gao
CC(C)(C)c1ccccc1OCC(=O)NCCC(=O)O,-1.6,0,0,107,i,0.94,102
Cc1cccc(N=Nc2ccc(O)c3ncccc23)c1,-0.7,-5,i,10,/,/,81
O=c1[nH]c(CSc2nnc(-c3ccccc3)n2C2CCCCC2)nc2ccccc12,-1.1,9,/,/,i,0.83,101
CN(C)CC(=O)Nc1ccc(S(N)(=O)=O)cc1,-0.1,0,11,95,i,1,98
O=c1[nH]c(CSc2nc(-c3ccccc3)cs2)nc2ccccc12,-0.5,-6,-37,102,i,0.93,96
Cc1noc(C)c1S(=O)(=O)NCCN1CCN(c2ccccc2)CC1,0.7,-15,34,111,i,0.89,102
CN(C)S(=O)(=O)N(Cc1ccc(Br)cc1)c1ccccc1,-3.6,-12,-45,95,i,1,113
Cc1ccc2c(c1)C1CN(C)CCC1N2C(=O)COc1ccccc1F (configuration not stated),/,/,/,/,i,0.81,101
COc1cc(NC(=S)NNC(=O)CC(C)C)c(OC)cc1Cl,-1.0,8,-9,71,i,0.87,141
Cc1csc(CN(C)C(=O)CC2C(=O)NCCN2CC(C)(C)C)n1 (configuration not stated),/,-2,17,234,i,1,104
Cn1c(=S)oc2ccccc21,/,/,/,/,i,1.1,98
Oc1[nH]c2ccccc2c1C=Nc1ccc2c(c1)OCCO2,-1.4,6,-156,131,i,0.91,102
COc1ccccc1N1CCN(C(=O)c2cc(-c3ccc(Cl)c(Cl)c3)on2)CC1,-0.3,1,-6,95,i,0.8,103
CCOC(=O)CNC(=O)CSc1ncnc2c1cnn2-c1ccccc1,-1.7,-7,49,118,/,/,101
CC(=O)Nc1cc(NC(C)=O)cc(C(=O)OCC(=O)N2CC(C)OC(C)C2)c1 (configuration not stated),-1.5,-13,18,51,i,0.92,101
CCCN(C(=O)CSc1nc2c(cnn2-c2ccccc2)c(=O)[nH]1)C1CCS(=O)(=O)C1 (configuration not stated),-0.9,10,38,121,i,0.96,104
COc1cc(OC)cc(C(=O)N2CCC(C(=O)Nc3ccc4c(c3)OCCO4)CC2)c1,-1.4,-2,15,83,i,1.1,106
C/C(N)=C(\C#N)C(=O)NCCc1ccccn1,-2.0,-12,-24,88,i,1,102
COC(=O)CSc1nnc(-c2ccc(OC)c(OC)c2)o1,/,-11,/,/,i,1,53
O=C(Nc1cccnc1Cl)c1cc(-c2ccco2)on1,-2.1,-9,38,109,i,1.3,94
CCOc1ccccc1C(=O)NN1C(=O)C2CCCCC2C1=O (configuration not stated),-0.6,-5,-69,132,i,1,99
O=C1OC(/C(=C\Nc2ccc(F)cc2F)[N+](=O)[O-])c2ccccc21 (configuration not stated),/,0,/,/,i,0.95,102
CCN(C(=O)CC(C)C)c1nnc(Cn2nnc3ccccc32)s1,/,-6,27,19,i,0.89,99
CCN1CNC(=S)N(c2cccc(C)c2)C1,/,/,/,/,i,0.99,94
Cc1onc(-c2ccccc2)c1C(=O)NNC(=S)NC(=O)c1ccc2c(c1)OCO2,/,/,/,/,i,1,106
Cc1cccc(-n2nnc(C(=O)Nc3ccc(F)cc3)c2N)c1,-0.8,-4,/,/,i,0.9,100
O=C(NCCCN1CCCC1=O)NC12CC3CC(CC(C3)C1)C2,1.2,4,5,75,i,1,100
COc1ccc(C(=O)CSc2nnc(CNC(=O)c3ccc(OC)c(OC)c3)n2C)cc1,-2.5,-15,11,85,i,0.91,104
C=CCNC(=S)NNC(=O)C(CCCC)CC(C)O (configuration not stated),-1.2,-8,14,28,i,0.92,102
N#CCCN(CCC#N)C(=O)COc1ccc(Cl)cc1Cl,-2.5,-4,-69,76,i,1,104
CC1CCCCC1NS(=O)(=O)c1ccc(S(=O)(=O)N2CCN(CCC#N)CC2)cc1 (configuration not stated),-1.0,-4,-143,103,i,0.82,99
CCn1cc(Cl)c(C(=O)NNC(=O)CCn2nc(C)c([N+](=O)[O-])c2C)n1,0.3,-7,/,/,i,0.95,103
Cc1cc(F)c(F)c(C(=O)N2CCCCC2C)c1Cl (configuration not stated),/,-1,-77,106,/,/,108
COc1ccccc1NC(=O)c1nn(-c2ccc(F)c(F)c2)ccc1=O,-0.7,11,69,73,i,0.95,87
CCC(CC)C(=O)c1c[nH]c(C(=O)NCCCN2CCOCC2)c1,-2.4,-10,27,141,/,/,105
CCN(CC)S(=O)(=O)c1ccc(Cl)c(NC(=O)c2cc(Cl)cc(Cl)c2)c1,-0.6,-22,-18,123,i,0.96,99
CCc1ccc(CCC(=O)Nc2sc(C)c(C)c2C(=O)OC)o1,-2.1,-3,13,58,i,0.93,102
C=CCn1c(SCC(=O)Nc2cc(C)c(Cl)cc2OC)nnc1-c1ccco1,-0.8,-11,/,/,i,0.77,102
Cc1ccc(C(=O)NCCn2c(N)c(C#N)c3nc4ccccc4nc32)cc1,2.0,-5,-450,145,i,0.98,98
Cc1ccc(C(=O)n2nc(-c3ccccc3)nc2NCc2ccco2)cc1,-2.1,3,21,103,i,0.9,100
O=C1C=C(NCC2CCCO2)CC(c2ccccc2)C1 (configuration not stated),-0.1,-4,36,84,i,0.94,104
CCOc1ccc2[nH]c3c(=O)n(CCc4ccc(OC)cc4)cnc3c2c1,/,/,/,/,i,0.95,101
CC(C)(C)C(=O)/C(C#N)=C/c1ccc(O)cc1,/,2,33,76,i,1,58
CC(C)COP(=O)(c1ccc(N(C)C)cc1)C(O)c1ccncc1 (configuration not stated),-4.8,5,16,107,i,0.88,101
CCC(Sc1ccc2nnc(-c3cccnc3)n2n1)C(=O)OC (configuration not stated),/,-8,-100,128,i,0.93,100
COC(=O)c1sccc1NC(=O)Nc1ccc(Cl)c(Cl)c1,-0.7,-7,26,139,i,1.1,97
CN(C)c1ccc(/C=N/NC(=O)CCCO)cc1,/,1,-23,113,i,0.89,110
CCOc1ccc(NCCC#N)cc1,-2.1,-5,16,121,i,0.84,100
C=CCn1c(=O)c2c3c(sc2n2c(Nc4ccc(C(=O)OCC)cc4)nnc12)CCCC3,1.7,-1,14,96,i,0.92,106
C=CCNC(=O)c1onc(CSc2cccc(Cl)c2)c1C(=O)O,-4.0,-1,24,213,i,0.86,94

Next part.
SMILES,GALR2 agonist,PKD1 inh,Insulin prom inh,Insulin prom inh cell count,HSV replic up,HSV replic up primary fold,RGS16-Gao
O=[N+]([O-])c1cccc(S(=O)(=O)NCCc2cn3ccccc3n2)c1,/,/,/,/,i,1,100
O=C(/C=C/c1cn(-c2ccccc2)nc1-c1cccnc1)N1CCCC1,/,-10,-17,48,i,0.76,107
O=c1c(Cl)c(NC2CC2)cnn1-c1ccccc1,/,-10,/,/,i,1.1,87
Cc1ccc(Sc2ncnc(N)c2[N+](=O)[O-])cc1,-1.7,-11,47,90,i,1,99
COc1ccc(OC)c(CN2CCCC(C(=O)N3CCCCC3)C2)c1 (configuration not stated),72*,-14,47,63,i,1,102
COC(=O)CN1C(=O)C(O)(CC(=O)c2ccc(C)o2)c2ccccc21 (configuration not stated),-1.1,-2,53,140,i,1,105
O=C(c1ccc(Cl)c([N+](=O)[O-])c1)N1CCN(c2ccccn2)CC1,-0.5,14,40,97,i,0.85,113
COc1cccc(C(=O)Nc2c3c(nn2-c2cccc(C)c2C)CS(=O)(=O)C3)c1OC,1.9,-5,-64,112,i,1.1,97
CC(=O)Nc1ccc(NCC(O)COc2ccccc2)cc1 (configuration not stated),-0.5,2,0,144,i,0.9,98
CN(C)c1ccc(-n2cccc2)cc1,/,/,/,/,i,0.98,103
COc1cc(C2C(C#N)=C(N)N(c3ccc(F)cc3)C3=C2S(=O)(=O)CC3)ccc1O (configuration not stated),/,-2,/,/,i,1,104
CC(C(=O)Nc1ccc(C(=O)O)cc1)N1C(=O)c2ccccc2C1=O (configuration not stated),-1.7,-1,/,/,i,0.92,97
CNC(=O)/C(C#N)=C/c1c(N(Cc2ccccc2)Cc2ccccc2)nc2ccccn2c1=O,1.2,0,/,/,i,0.77,103
C#CCN1C(=O)C2C(C(=O)NC)C3C=CC2(O3)C1C(=O)NCc1ccc(OC)cc1 (configuration not stated),-4.0,-8,/,/,i,1.1,106
CCSC1=C(C#N)C(c2ccccc2Cl)C(C(=O)c2cccs2)C(O)(C(F)(F)F)N1 (configuration not stated),0.4,-1,-27,163,i,1.2,100
COc1ccc(N2CCCn3c2nc2c3c(=O)n(CCCc3ccccc3)c(=O)n2C)cc1,-0.5,-3,0,48,/,/,95
O=C(O)c1ccc(-c2nc3ccccc3s2)o1,/,/,/,/,i,1.1,103
O=C(COc1ccccc1)Nc1ccc(NC(=O)c2ccco2)cc1,/,-1,/,/,i,0.98,109
Cc1ccc(Oc2cc(C#N)c(C#N)cc2-n2nnc3ccccc32)cc1C,-2.5,-4,22,80,i,1,96
Cc1ccc(/C=C/C(=O)CCC(=O)O)cc1,/,7,/,/,i,1,104

Four structures out of the list, sorted by molecular weight, smallest number first.
SMILES,GALR2 agonist,PKD1 inh,Insulin prom inh,Insulin prom inh cell count,HSV replic up,HSV replic up primary fold,RGS16-Gao
Cc1ccc(/C=C/C(=O)CCC(=O)O)cc1,/,7,/,/,i,1,104
Cc1ccc(Oc2cc(C#N)c(C#N)cc2-n2nnc3ccccc32)cc1C,-2.5,-4,22,80,i,1,96
COc1ccc(N2CCCn3c2nc2c3c(=O)n(CCCc3ccccc3)c(=O)n2C)cc1,-0.5,-3,0,48,/,/,95
CCSC1=C(C#N)C(c2ccccc2Cl)C(C(=O)c2cccs2)C(O)(C(F)(F)F)N1 (configuration not stated),0.4,-1,-27,163,i,1.2,100

Another view of some results above.
Cc1ccc(/C=C/C(=O)CCC(=O)O)cc1
  GALR2 agonist: /
  PKD1 inh: 7
  Insulin prom inh: /
  Insulin prom inh cell count: /
  HSV replic up: i
  HSV replic up primary fold: 1
  RGS16-Gao: 104
CC(C(=O)Nc1ccc(C(=O)O)cc1)N1C(=O)c2ccccc2C1=O (configuration not stated)
  GALR2 agonist: -1.7
  PKD1 inh: -1
  Insulin prom inh: /
  Insulin prom inh cell count: /
  HSV replic up: i
  HSV replic up primary fold: 0.92
  RGS16-Gao: 97

Continuation.
SMILES,GALR2 agonist,PKD1 inh,Insulin prom inh,Insulin prom inh cell count,HSV replic up,HSV replic up primary fold,RGS16-Gao
CCc1ccc(Nc2nnc(SCc3cc(=O)n4ccsc4n3)s2)cc1,-0.7,-8,25,127,/,/,98
CC(NS(=O)(=O)c1ccc(CCC(=O)NCc2cccnc2)cc1)c1ccccc1 (configuration not stated),-0.3,2,-133,147,i,1,102
O=C(NCc1cccs1)C1CCCN(c2ncccn2)C1 (configuration not stated),-1.4,-5,31,11,i,1,100
CC1=[N+](CC(=O)c2ccccc2)CCn2cccc21,/,0,/,/,i,0.96,101
CCN(CC)S(=O)(=O)c1ccc2nc(NC(=O)c3cccs3)sc2c1,-2.0,-6,-109,85,i,1,103
COC(=O)CC1C(=O)NCCN1C(=O)CSc1nc2cc(Cl)ccc2o1 (configuration not stated),/,-5,/,/,i,1.1,100
CCCCCc1nc2c(=O)[nH]c3ccccc3c2o1,1.0,-20,40,108,i,0.92,101
Cc1ccc(C(=O)NC(=C(Cl)Cl)S(=O)(=O)c2ccccc2)cc1,-0.6,2,-35,118,i,0.75,115
Cc1cc(C)cc(NC(=S)NCc2ccc3c(c2)OCO3)c1,0.7,-3,2,50,i,0.76,/
CCOc1ccc(CNC(=S)N/N=C\c2ccc([N+](=O)[O-])cc2)cc1,-5.4,-1,0,97,i,0.76,83
Cc1cc(C(=O)CSc2nnc(-c3cccnc3)n2-c2ccccc2F)c(C)n1C,0.6,10,/,/,i,0.9,-0.8*!
Oc1ccccc1-c1nc(N2CCCC2)c2ccccc2n1,-1.5,0,-34,130,i,0.92,108
N=C1SC(CC(=O)Nc2ccccc2[N+](=O)[O-])C(=O)N1c1ccccc1 (configuration not stated),/,/,/,/,i,0.94,100
CCCS(=O)(=O)N1CCC(C(=O)NCCN2CCCC2)CC1,-1.6,-13,31,144,i,0.94,99
Cc1ccc(Cl)cc1N1CCN(C(=O)C(=O)N2CCCCC2)CC1,/,-1,-20,98,i,0.94,102

Random draw from the library; overall some 1.3% were active at least once.
